nsP2pro inh: inhibitors of chikungunya virus nsP2 protease | Potency, µM (highest dose often 24.9 µM), for the others: top-dose activity change, negative = inhibition, hits mostly inhibitors | AID 1964107 | Q8JUX6 | FRET peptide cleavage, nsP2pro, fluorescence 1 h | 31,000 tested, 1.1% active; active means well fitted inhibition curve with a large enough effect; inconclusive means small, poorly fitted or top-dose-only effect; inactive means no such curve, though single readings can be large or run the other way; note: nearly all actives have a fitted effect of over 60% in size; a reference inhibitor and vehicle were the controls
Target sequence (Q8JUX6 whole entry, looked up): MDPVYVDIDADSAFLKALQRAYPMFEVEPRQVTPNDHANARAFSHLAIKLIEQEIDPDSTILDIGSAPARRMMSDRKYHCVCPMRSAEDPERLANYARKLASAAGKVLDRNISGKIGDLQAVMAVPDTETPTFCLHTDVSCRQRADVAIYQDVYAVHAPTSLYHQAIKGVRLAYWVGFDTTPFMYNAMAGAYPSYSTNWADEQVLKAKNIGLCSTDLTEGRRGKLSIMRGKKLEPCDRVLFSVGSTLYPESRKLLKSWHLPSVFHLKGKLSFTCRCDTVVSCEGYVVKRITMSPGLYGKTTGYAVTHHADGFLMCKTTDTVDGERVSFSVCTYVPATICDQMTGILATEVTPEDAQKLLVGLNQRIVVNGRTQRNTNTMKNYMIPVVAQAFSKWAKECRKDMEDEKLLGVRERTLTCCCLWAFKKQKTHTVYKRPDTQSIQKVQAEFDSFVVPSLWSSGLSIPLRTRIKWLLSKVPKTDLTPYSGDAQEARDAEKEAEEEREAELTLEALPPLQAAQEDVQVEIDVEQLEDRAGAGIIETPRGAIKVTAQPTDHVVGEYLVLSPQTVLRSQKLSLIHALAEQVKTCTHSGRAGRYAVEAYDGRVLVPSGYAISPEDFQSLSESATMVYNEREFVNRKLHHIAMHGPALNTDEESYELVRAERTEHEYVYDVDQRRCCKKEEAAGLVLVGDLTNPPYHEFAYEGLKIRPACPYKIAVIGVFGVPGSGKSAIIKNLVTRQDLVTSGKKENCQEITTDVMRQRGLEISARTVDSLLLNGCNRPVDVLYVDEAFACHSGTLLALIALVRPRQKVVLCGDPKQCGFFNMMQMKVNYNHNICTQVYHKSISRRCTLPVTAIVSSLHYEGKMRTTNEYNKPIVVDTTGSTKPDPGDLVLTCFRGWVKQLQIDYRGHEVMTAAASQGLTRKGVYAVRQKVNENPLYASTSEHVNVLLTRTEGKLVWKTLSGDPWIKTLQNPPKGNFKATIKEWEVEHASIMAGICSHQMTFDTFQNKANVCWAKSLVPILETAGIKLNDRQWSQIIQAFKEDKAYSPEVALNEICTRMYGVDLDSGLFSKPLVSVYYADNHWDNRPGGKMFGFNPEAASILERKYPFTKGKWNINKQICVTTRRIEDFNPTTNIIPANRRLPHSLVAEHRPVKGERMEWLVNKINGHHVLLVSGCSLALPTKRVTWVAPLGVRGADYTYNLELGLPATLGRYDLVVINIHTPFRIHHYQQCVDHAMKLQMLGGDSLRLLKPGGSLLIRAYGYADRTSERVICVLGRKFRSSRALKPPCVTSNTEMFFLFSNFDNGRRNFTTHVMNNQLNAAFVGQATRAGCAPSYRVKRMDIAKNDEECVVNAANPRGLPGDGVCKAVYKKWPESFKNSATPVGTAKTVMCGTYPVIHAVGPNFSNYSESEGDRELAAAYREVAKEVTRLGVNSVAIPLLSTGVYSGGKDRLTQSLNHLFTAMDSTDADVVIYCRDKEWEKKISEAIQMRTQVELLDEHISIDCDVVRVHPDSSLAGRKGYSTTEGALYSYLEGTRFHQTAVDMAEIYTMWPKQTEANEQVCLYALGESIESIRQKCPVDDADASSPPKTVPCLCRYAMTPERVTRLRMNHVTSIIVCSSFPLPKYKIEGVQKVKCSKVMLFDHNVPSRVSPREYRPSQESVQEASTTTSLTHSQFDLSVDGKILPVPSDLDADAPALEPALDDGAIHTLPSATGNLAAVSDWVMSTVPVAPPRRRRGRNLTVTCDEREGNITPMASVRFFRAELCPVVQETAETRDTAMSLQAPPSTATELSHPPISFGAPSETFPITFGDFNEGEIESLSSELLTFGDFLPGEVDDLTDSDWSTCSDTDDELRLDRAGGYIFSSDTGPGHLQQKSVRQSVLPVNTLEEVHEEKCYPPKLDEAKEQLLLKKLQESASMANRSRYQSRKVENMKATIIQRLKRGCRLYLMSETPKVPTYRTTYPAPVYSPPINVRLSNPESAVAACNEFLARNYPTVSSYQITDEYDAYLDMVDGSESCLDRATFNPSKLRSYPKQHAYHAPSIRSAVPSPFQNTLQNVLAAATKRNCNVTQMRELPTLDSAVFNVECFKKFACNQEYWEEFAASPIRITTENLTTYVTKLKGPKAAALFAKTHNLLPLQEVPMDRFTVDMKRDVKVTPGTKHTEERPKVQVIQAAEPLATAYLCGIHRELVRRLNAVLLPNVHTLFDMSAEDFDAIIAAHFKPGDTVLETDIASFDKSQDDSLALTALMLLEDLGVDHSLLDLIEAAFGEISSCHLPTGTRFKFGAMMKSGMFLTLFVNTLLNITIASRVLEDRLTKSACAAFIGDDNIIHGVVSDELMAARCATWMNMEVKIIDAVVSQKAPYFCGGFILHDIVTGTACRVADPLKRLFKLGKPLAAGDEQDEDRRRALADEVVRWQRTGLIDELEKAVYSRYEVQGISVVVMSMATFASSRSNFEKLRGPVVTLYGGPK
Active calls of the source: *; i = inactive; u = inconclusive; & = joins results of further samples; [ ] = another dose, or the depositor's remark. % is set by controls: 0 for no effect and ±100 for the full control effect; potency is the fitted concentration of half-maximal effect. A portion of the library, so the mix of outcomes need not match the whole.

Start of the listing, in advance (six entries):
SMILES | nsP2pro inh
CN(C)c1cccc(NS(=O)(=O)c2ccc(NC(=O)Cc3ccc(Cl)c(Cl)c3)cc2)c1 | -27%
O=C(c1cc(Br)cn2ccnc12)N1CCCC1 | -5%[39.2 µM]
C1=Cc2ccccc2C(=C2CCN(CCCCc3nn[nH]n3)CC2)c2ccccc21 | 110%[activator]
CC1=C(C(=O)N2CCC(CCC(=O)Nc3ccc4c(c3)OCCO4)CC2)OCCO1 | i
COCc1ccc(C(=O)N2CCN(CCO)CC(O)C2)cc1 (centres undefined) | -5%
CC1CC[C@]2(C(=O)O)CC[C@]3(C(=O)O)C(=CCC4[C@@]5(C)CC[C@H](OC6OC(C)C(O)C(OC7OC(CO)C(O)C(O)C7O)C6O)C(C)(C)C5CC[C@]43C)C2C1C (some centres undefined) | 36%[activator][10 µM]

All compounds of this part, previewed entries included:
SMILES | nsP2pro inh
CN(C)c1cccc(NS(=O)(=O)c2ccc(NC(=O)Cc3ccc(Cl)c(Cl)c3)cc2)c1 | -27%
O=C(c1cc(Br)cn2ccnc12)N1CCCC1 | -5%[39.2 µM]
C1=Cc2ccccc2C(=C2CCN(CCCCc3nn[nH]n3)CC2)c2ccccc21 | 110%[activator]
CC1=C(C(=O)N2CCC(CCC(=O)Nc3ccc4c(c3)OCCO4)CC2)OCCO1 | i
COCc1ccc(C(=O)N2CCN(CCO)CC(O)C2)cc1 (centres undefined) | -5%
CC1CC[C@]2(C(=O)O)CC[C@]3(C(=O)O)C(=CCC4[C@@]5(C)CC[C@H](OC6OC(C)C(O)C(OC7OC(CO)C(O)C(O)C7O)C6O)C(C)(C)C5CC[C@]43C)C2C1C (some centres undefined) | 36%[activator][10 µM]
COc1ccc(Cl)cc1C(=O)NCCc1ccc(S(=O)(=O)NC(=O)NC2CCCCC2)cc1 | -11%&7%
COc1cccc(CN2Cc3nc(-c4cnn(C)c4)ccc3OCC2=O)c1 | 0%[39.2 µM]
COc1ccccc1NC(=O)Cn1c(=O)n(Cc2nc(-c3ccccc3)no2)c(=O)c2ccccc21 | -6%
CC(=O)N1CCC(N[C@@H]2CO[C@H](CNS(=O)(=O)c3ccccc3)[C@H]2O)CC1 | i
CC(C)n1cc(-c2cc(C(=O)N(C)Cc3cccnc3)c3cc(F)ccc3n2)cn1 | 3%
COc1ccc(OCc2nnc3n2N=C(c2ccccc2)CS3)cc1 | -4%
Cc1cnc(C(=O)N[C@@H]2CCC[C@@H]2C(=O)N2CCC(N3CCCCC3)CC2)cn1 | i
Cc1ccccc1NC(=O)c1ccc(F)c(S(=O)(=O)NC2CCCC2)c1 | -14%
COc1cc(C)c(C(=O)OC2C(C)OC(OC3CCC(C)C4C3C=C(C)C3/C(C)=C\CC/C(C)=C/C5(C)C=C(C(=O)O)C(C)CC56OC(=O)/C(=C(\O)C34C)C6=O)C(O)C2O)c(OC)c1 (centres undefined) | u
CN1C(=O)CC[C@]2(C(=O)N3CCN(c4ccccc4)CC3)CCCC[C@@H]12 | -20%
COc1ccc(-c2cc(=O)n3[nH]cnc3n2)cc1 | -19%
CC(=O)c1ccc(N2CCN(C(=O)c3cc(S(=O)(=O)N4CCCCCC4)cn3C)CC2)cc1 | -9%
O=C(NC1CCCc2c1cnn2-c1ccc(F)cc1F)c1cnon1 (centres undefined) | -5%
Cc1nnc2sc(-c3cccc(NC(=O)c4ccc(-c5cccc(Cl)c5)o4)c3)nn12 | 4%
CC1OC(OC2C(CO)OC(OCC3OC(OC(=O)C45CCC(C)(C)CC4C4=CCC6C7(C)CCC(OC8OC(CO)C(O)C(OC9OC(CO)C(O)C(O)C9O)C8O)C(C)(C)C7CCC6(C)C4(C)CC5)C(O)C(O)C3O)C(O)C2O)C(O)C(O)C1OC1OC(CO)C(O)C(O)C1O (centres undefined) | u
Cc1ccc(Cl)cc1NC(=O)c1nc[nH]c1C(=O)Nc1nc2ccccc2[nH]1 | 452%[activator]
O=C1NC2(CCN(Cc3ccccc3)C2)Oc2ccccc21 (centres undefined) | -20%[39.2 µM]
C[C@@H]1O[C@@H](O[C@H]2[C@@H]3C=CO[C@@H](O[C@@H]4O[C@H](CO)[C@@H](O)[C@H](O)[C@H]4O)[C@@H]3[C@@]3(CO)O[C@@H]23)[C@H](O)[C@H](OC(=O)/C=C/c2ccc(O)c(O)c2)[C@H]1O | u
CC1=C(c2ccc(C)c(C)c2)S(=O)(=O)N=C1N1CCN(c2cccc(C)c2)C(C)C1 (centres undefined) | -20%
Cc1ccc(CNC(=O)Nc2cnc3c(c2)CCC3)cc1 | -4%
CSCC[C@@H]1NC(=O)c2cc(NC(=O)c3cc(-c4ccccn4)n[nH]3)ccc2NC1=O | i
FC(F)OC(F)(F)C(F)Cl (centres undefined) | -3%
CS(=O)(=O)N1C[C@H]2CCN(Cc3ccncc3F)C[C@H]21 | 1%
COc1ccccc1C(=O)N1CCCC(c2nnc3n2C(C(=O)O)CC3)C1 (centres undefined) | -9%
COc1ccc(NC(=O)Cn2cc(S(=O)(=O)Cc3ccc(F)cc3)c3ccccc32)cc1OC | -6%
C[C@@]1(C(=O)Nc2ccc(F)nc2)CCCN1c1nc(Nc2cc(C3CC3)[nH]n2)c2cccn2n1 | -10%
COc1ccc(NC(=O)N[C@@H]2C=C[C@@H](c3c(C)nn(CCC#N)c3C)C2)cc1 | 13µM*
COc1ccc(N2CCN(C(=O)c3ccc4c(c3)N(Cc3cccc(Cl)c3)C(=O)c3ccccc3S4(=O)=O)CC2)cc1 | -17%
O=C(CN1C(=O)c2cccnc2Oc2ccc(Cl)cc21)NCCCN1CCCCC1 | -16%
Cc1ccc2c(c1)C(c1ccccc1)N(C(=O)c1ccc(S(=O)(=O)N3CCCC3)cc1)CC(=O)N2 (centres undefined) | -16%
CCOc1ccc(NC(=O)CSC2=Nc3ccccc3C3=NC(CC(=O)NCc4ccco4)C(=O)N23)cc1 (centres undefined) | -28%
O=C(O)c1ccc2c(c1)C(=O)N([C@H](Cc1c[nH]c3ccccc13)C(=O)O)C2=O | -1%
CCS(=O)(=O)c1ncc(Cl)c(C(=O)Nc2c(C(=O)Nc3cccc(C)c3)oc3ccccc23)n1 | -13%
Cc1ccc(CNc2ncnc3ccc(-c4ccc([C@@H](C)O)o4)cc23)o1 | u

A few values from the list.
Value of FC(F)OC(F)(F)C(F)Cl (centres undefined) in nsP2pro inh: -3%
Value of Cc1ccc(CNC(=O)Nc2cnc3c(c2)CCC3)cc1 in nsP2pro inh: -4%
Value of CC1=C(c2ccc(C)c(C)c2)S(=O)(=O)N=C1N1CCN(c2cccc(C)c2)C(C)C1 (centres undefined) in nsP2pro inh: -20%

(continued)
SMILES | nsP2pro inh
COc1ccccc1CNC(=O)C1CCN(C(=O)c2sccc2-n2cccc2)CC1 | -23%
O=C(CSc1nnc(-c2ccccc2)c(-c2ccccc2)n1)NCCc1ccccc1 | -9%
Cc1cc(C)c(NC(=O)Cn2nnc(S(=O)(=O)c3ccc(C)c(C)c3)c2N)c(C)c1 | -28%
COC(=S)NCCn1c([N+](=O)[O-])cnc1C | 3%
CCC(=O)N1CCc2cc(OC)c(O)cc2C1 | -19%
N[C@@H](CCC(=O)N[C@@H](CS)C(=O)NCC(=O)O)C(=O)O | -6%[10 µM]
O=C(CC1CCN(C(=O)Cc2ccccc2F)C1)NC1CC1 (centres undefined) | i
O=C(c1nc2ccccc2n(C2CCCC2)c1=O)N1CCCC1 | -5%[39.2 µM]
COc1ccc(N2CCN(S(=O)(=O)CCNC(=O)c3cc(=O)c4ccccc4o3)CC2)cc1 | u
CCN1CCC(CC(=O)N2CCC(C3CCN(C(=O)NC)CC3)C2)CC1 (centres undefined) | -5%
COc1ccc(CCNC(=O)c2cc3sccc3n2Cc2ccc(Cl)cc2)cc1OC | -9%
CCOc1ccc(OCC(=O)NCCS(=O)(=O)N2CCN(c3cccc(Cl)c3)CC2)cc1 | -5%
O=C(NCc1nnc2ccccn12)[C@H]1CNC[C@H](C(=O)N2CCOCC2)C1 | i
CC(C)NCC(O)c1ccccc1Cl (centres undefined) | 1%
COc1ccc(NC(=O)CN2C(=O)CSc3ccc(S(=O)(=O)N(C)C)cc32)cc1OC | -17%
COc1cc(=O)n2c(c1C(=O)N1CCN(c3ccc(C)cc3C)CC1)CCCC2 | -19%
Cc1ccc(-n2c3c(cc(C(=O)Nc4ccccc4C(N)=O)c2=O)C(=O)CC(C)(C)C3)cc1 | -11%
CCc1ccc(-c2nc(SCC(=O)NCCOC)c(-c3ccc(C)cc3)[nH]2)cc1 | -24%
COc1cc(OC)cc(C2=Nn3c(nnc3-c3ccccc3OC)SC2)c1 | i
CCOc1ccccc1NC(=O)N1CCCCCCNC(=O)CC1c1ccccc1 (centres undefined) | 5%
Cc1cc(C)nc(NC(=S)N2CCN(c3ncccc3Cl)CC2)c1 | -1%
CCOC(=O)N1c2ccc(C(F)(F)F)cc2[C@@H](N(Cc2cc(C(F)(F)F)cc(C(F)(F)F)c2)C(=O)OC)C[C@H]1CC | 50%&-4%[activator]
Cc1ccc2nc(NC(=O)CSc3nc4c(c(=O)n3C)SC(C)C4)sc2c1 (centres undefined) | 2%
Cc1c(C)n(Cc2ccccc2)c2ccc(C(=O)NCc3ccc(OC(C)C)cc3)cc12 | -8%
Cc1ccc(OCCn2c(CCNC(=O)c3cccc4cc[nH]c34)nc3ccccc32)cc1 | -17%
OCCCCC#Cc1cncc(OC[C@@H]2CCN2)c1 | 6%
CC1CCC2C(=CCC(O)C2(C)C)C1(C)Cc1c(O)cc(CO)c(C=O)c1O (centres undefined) | 4%
Cc1ncc(COP(=O)(O)O)c(C=O)c1O | u
CC1=C(CC(=O)O)c2cc(F)ccc2/C1=C\c1ccc(S(C)=O)cc1 (centres undefined) | -12%
CC(C)Cn1cc(NC(=O)N2CCN(c3ccccc3F)CC2)c2ccccc2c1=O | -18%

Reformatted with each value named: entries from further up.
Cc1cc(C)nc(NC(=S)N2CCN(c3ncccc3Cl)CC2)c1
- nsP2pro inh: -1%

CCOc1ccccc1NC(=O)N1CCCCCCNC(=O)CC1c1ccccc1 (centres undefined)
- nsP2pro inh: 5%

CCOc1ccc(NC(=O)CSC2=Nc3ccccc3C3=NC(CC(=O)NCc4ccco4)C(=O)N23)cc1 (centres undefined)
- nsP2pro inh: -28%

Additional compounds.
SMILES | nsP2pro inh
CC1CCC(NC(=O)c2ccc3c(c2)N(Cc2ccccc2F)C(=O)c2ccccc2S3=O)CC1 (centres undefined) | -14%
C[C@@H](O[C@H]1OCCN(Cc2nn(P(=O)(O)O)c(=O)[nH]2)[C@H]1c1ccc(F)cc1)c1cc(C(F)(F)F)cc(C(F)(F)F)c1 | -24%[10 µM]
Cc1ccc(S(=O)(=O)c2nnn3c2nc(NCc2ccc4c(c2)OCO4)c2sccc23)cc1 | -25%
OC[C@H]1O[C@@H](OC(CCCCc2ccc(O)cc2)CCc2ccc(O)cc2)[C@H](O)[C@@H](O)[C@@H]1O (some centres undefined) | -12%[10 µM]
CC(=O)c1ccc(-c2csc3ncnc(Sc4nnnn4C)c23)cc1 | u
O=C1COc2ccc(-c3ccncc3)nc2CN1Cc1ccccc1 | -12%[39.2 µM]
O=C(NCc1ccc2c(c1)OCO2)C1NCCc2[nH]cnc21 (centres undefined) | i
CC1(NC(=O)C2CC2)CN(Cc2nc(-c3ccccc3OCc3ccccc3)cs2)C1 | i
O=C(O)CC1C(=O)NCCN1C1Cc2ccccc2C1 (centres undefined) | -3%
COC1CC(=O)C23C(=O)NC(CC(C)C)C2C(C)C(C)=CC3/C=C(\C)CCC1O (centres undefined) | -19%[10 µM]
COc1cccc(N2CCN(C(=O)c3cnn(C(C)(C)C)c3C3CCN(C(=O)OC(C)(C)C)CC3)CC2)c1 | -16%
Cc1cc(Nc2ncnc3ccc(NC4=NC(C)(C)CO4)cc23)ccc1Oc1ccn2ncnc2c1 | -13%
COc1ccc(N2Cc3cccc(C(=O)Nc4ccc(C)c(C)c4)c3C2=O)cc1 | -18%
Cc1ccc(Nc2cc(C(=O)NCc3cccs3)c3ccccc3n2)c(C)c1 | -13%
COc1cc(CCC(=O)NCc2ccc3c(c2)CCN3C(=O)c2ccc(F)cc2)cc(OC)c1OC | -20%
Cc1ccc(-c2nnc(SCc3ccccc3C)o2)cc1 | -21%
CO[C@H]1C[C@@H](O)C12CCN(C(=O)CCc1cn3ccccc3n1)CC2 | -3%
CCc1ccc(NC(=O)CSc2nc3c([nH]c4ccccc43)c(=O)n2C)cc1 | -12%
CCN1CCC2(CCC1=O)CN(Cc1cscn1)CCN2C (centres undefined) | i
Fc1ccc(CSc2nc3ncc(Br)cc3[nH]2)cc1 | 3%
CCC(=O)O[C@]1(C(=O)CO)CC[C@H]2[C@@H]3CCC4=CC(=O)CC[C@]4(C)[C@H]3CC[C@@]21C | -8%
CCn1cc(/C=C(\NC(=O)c2ccc(OC)cc2)C(=O)NCCCn2ccnc2)c2ccccc21 | 30%[activator]
Cc1ccc2c(c1)c(=O)c(C(=O)c1ccc3c(c1)OCO3)cn2Cc1ccc(Cl)cc1 | -24%
COCCc1noc(C2Cc3ccccc3N2C(=O)Nc2ccc3c(c2)OCCO3)n1 (centres undefined) | i
C[C@H]1CCN2C[C@]34C[C@@]5(C(=O)Nc6c5ccc5c6OC=CC(C)(C)O5)C(C)(C)C3C[C@]12C(=O)N4C (some centres undefined) | -6%[10 µM]
CC(=O)c1cc2c(cc1O)OC(C)(C)C=C2 | -12%
COc1cccc(C(=O)NC2CCN(c3nnc4ccccn34)CC2)c1 | 0%
CNCC(O)c1cccc(O)c1 (centres undefined) | u
Fc1ccccc1CN1CCNc2cnc(OCc3cccnc3)cc2C1 | 1%[39.2 µM]
CCc1ccc2occ(CC(=O)Nc3sc4c(c3C(=O)NCCOC)CCCC4)c2c1 | -12%
COc1cccc([S+](=O)([O-])N2CC(N3CCc4ccccc43)C2)c1 | -9%
C#C[C@H]1CN2CC[C@H]1C[C@@H]2CNC(=O)COCC(=O)O | 0%[39.2 µM]
COc1ccc(/C=C/C(=O)O[C@@H]2[C@@H](OC(C)=O)[C@@H](OC(C)=O)[C@H](O[C@H]3[C@@H]4C=CO[C@@H](O[C@@H]5O[C@H](CO)[C@@H](O)[C@H](O)[C@H]5O)[C@@H]4[C@@]4(CO)O[C@@H]34)O[C@H]2C)cc1O | 6%[10 µM]
